Assay outcomes as filed in PubChem BioAssay.
HNF4A DNA FP: change in binding of human HNF4 alpha to DNA; HNF4a-FITC DNA binding, fluorescence polarization, 1 h; P41235; activity change, % at 10 µM; hit rate 0.3% among 360,000; in the data active = activity change above about 30%, passing the limit was not always enough;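 also: controls were the assay level and a saturating level of protein; the project sought stronger binding though the title names inhibitors; some compounds called inactive have numbers as strong as hits; positive values seem to mean higher polarization but the record does not say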
Target sequence (P41235 whole entry, looked up): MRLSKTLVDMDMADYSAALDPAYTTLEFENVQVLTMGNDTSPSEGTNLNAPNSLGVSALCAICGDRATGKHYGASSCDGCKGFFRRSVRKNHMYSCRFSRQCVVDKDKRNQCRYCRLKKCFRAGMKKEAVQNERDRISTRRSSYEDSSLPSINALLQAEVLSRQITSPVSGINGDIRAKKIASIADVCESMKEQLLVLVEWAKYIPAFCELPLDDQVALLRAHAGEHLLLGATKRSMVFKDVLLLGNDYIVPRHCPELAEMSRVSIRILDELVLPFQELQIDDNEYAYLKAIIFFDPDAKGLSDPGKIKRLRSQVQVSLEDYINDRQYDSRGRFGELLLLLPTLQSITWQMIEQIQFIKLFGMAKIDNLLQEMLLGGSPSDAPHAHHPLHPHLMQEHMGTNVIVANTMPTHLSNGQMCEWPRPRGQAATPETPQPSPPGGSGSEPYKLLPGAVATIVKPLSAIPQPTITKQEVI
ALR H2O2 inh: inhibitors of human sulfhydryl oxidase ALR; P55789; purified ALR, DTT oxidation, H2O2 HRP-luminol luminescence; inhibition, % (no concentration beside the values); hit rate 3.8% among 290,000; AID 485317;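 active = mean and each replicate at 75% or more; inconclusive = only one of the two met; inactive = neither met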;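 also: stock transfer was 7.5 nL into about 7.5 µL; 0% = neutral wells and 100% = wells with inactivated enzyme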
Ecoli growth: E. coli growth inhibition; Escherichia coli growth, OD600, 23 h; stronger effect = lower value; OD600 absorbance (concentration not given with the values); hit rate 0.21% among 330,000; AID 1053175;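 active = OD600 absorbance below the run mean of sample wells minus 3.6 SD, in any replicate, cut at about 0.56 in these data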;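 also: stock transfer was 300 nL into about 60 µL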
Vif TR-FRET: inhibitors of Vif binding to APOBEC3G peptide, primary screen, biochemical, TR-FRET, GST-Vif 1-94, biotin-A3G peptide, dose response retest (AID 1117319) | TR-FRET GST-Vif / biotin-A3G peptide binding; higher % means a stronger effect; test concentration not given here; strong numbers were not always called active | one-dose inhibition, %; IC50 in µM for titrated hits | hit rate 0.57% among 260,000;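 active = above the screen mean plus three standard deviations and confirmed in dose response; inconclusive = results disagree or hit not tested in dose response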;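 also: Vif residues 1-94 fused to GST binding biotinylated APOBEC3G peptide 110-148; 0% = full assay without inhibitor and 100% = GST in place of GST-Vif; retest series ran down from 100 µM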
MLL AF4-AF9 inh: blocks AF4 peptide binding to human AF9; P42568; AlphaScreen, biotin-AF4 peptide binding to FLAG-AF9; inhibition, % at 10 µM; hit rate 0.47% among 350,000; AID 651704;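 active = every replicate reaching a set inhibition limit, whatever the replicate mean, cut at about 25% in these data; inconclusive = mean inhibition reaches that limit but some replicates miss it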;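 also: 0% = plate neutral control median and 100% = total signal loss; the record names both 10 and 1 µM as test concentration; the first replicate is given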
Target sequence (P42568 whole entry, looked up): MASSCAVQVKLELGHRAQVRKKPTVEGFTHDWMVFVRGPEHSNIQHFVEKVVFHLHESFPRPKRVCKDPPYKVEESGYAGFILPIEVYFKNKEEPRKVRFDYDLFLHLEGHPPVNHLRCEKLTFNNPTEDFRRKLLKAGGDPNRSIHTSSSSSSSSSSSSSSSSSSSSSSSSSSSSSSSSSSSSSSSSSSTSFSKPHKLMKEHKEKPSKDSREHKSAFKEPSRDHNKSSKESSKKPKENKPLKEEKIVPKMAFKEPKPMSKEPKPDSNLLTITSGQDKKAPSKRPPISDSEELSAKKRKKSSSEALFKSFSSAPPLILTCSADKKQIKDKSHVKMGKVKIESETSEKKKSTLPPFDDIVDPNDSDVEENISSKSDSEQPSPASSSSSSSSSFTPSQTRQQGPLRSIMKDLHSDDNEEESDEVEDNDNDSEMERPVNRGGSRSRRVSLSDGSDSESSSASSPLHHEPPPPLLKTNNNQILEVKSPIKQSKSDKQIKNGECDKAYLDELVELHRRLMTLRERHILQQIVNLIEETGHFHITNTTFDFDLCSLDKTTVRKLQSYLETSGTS
Ecoli rRNA inh: inhibitors of bacterial rRNA selective over humanized ribosomes. hit rate 1.6% among 350,000. GFP signal change (wild-type ribosome), % (test concentration not listed). E. coli WT GFP vs humanized-ribosome RFP mutants, fluorescence, 24 h; stronger effect = lower value; DMSO median 0, no signal -100;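 active = significant combined selectivity score with lowered wild-type GFP, culture density cut under 30%, mutant RFP and density less affected; inactive = any of these conditions unmet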; also: one replicate is shown; some compounds called inactive have numbers as strong as hits
FGF22 binding: binders of recombinant human FGF22 by thermal shift; Q9HCT0; SYPRO orange fluorescence; percent of sucrose octasulfate shift, DMSO zero; calls only at 9.99 µM; hit rate 1.5% among 340,000;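 active = melting point raised past a set limit in the mean and every replicate; inconclusive = no clear call; three in four hits are not shown here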
Ecoli rRNA inh OD600: further read-out of Ecoli rRNA inh, marked with its call; OD600 change, %; measured here: OD600 growth;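 optical density of the mix in the first replicate; 0 = DMSO median and -100 = no signal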
Ecoli rRNA inh RFP: recorded beside Ecoli rRNA inh, whose call it bears; RFP signal change, %; measured here: RFP humanized mutant strains;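 first replicate; 0 = DMSO median and -100 = no signal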
Active calls of the source: *; i = inactive; ? = inconclusive; · = not tested or not shown; + = active, no number; & = joins results of further samples. Only part of the results is shown; the hit share may differ from the screen's.

#1 Cn1cc(CNCc2ccccc2OCC(O)CN2CCc3ccccc3C2)cn1 (centres undefined)
#2 C/C=C/c1ccc2c(c1)O[C@H](CN(C)Cc1ccncc1)[C@@H](C)CN([C@@H](C)CO)S2(=O)=O
#3 COc1cccc(NC(=S)N2CCC(c3ccc(C)cc3)C2)c1 (centres undefined)
#4 O=C(NCc1ccc(OC(F)(F)F)cc1)c1cccc2c1C(=O)c1ccc(N3CCCCC3)cc1S2(=O)=O
#5 CCOC(=O)N1CCN(Cc2nc3cc(NC(=O)CC(C)C)ccc3n2C)CC1
#6 CC(C)NC(=O)Nc1ccc2c(c1)C(=O)N([C@@H](C)CO)C[C@H](C)[C@H](CN(C)C(=O)Nc1ccccc1)O2
#7 O=C1C=C(c2cccs2)CC(c2cccs2)C1n1cnc([N+](=O)[O-])c1 (centres undefined)
#8 COc1ccccc1-n1c(=O)c(C#N)c(-c2ccc([N+](=O)[O-])cc2)c2cc(C(=O)c3cc(F)ccc3O)cnc21
screen / no.,1,2,3,4,5,6,7,8
HNF4A DNA FP,3.4,·,0.8,56,4.2,·,1.1,2.3
ALR H2O2 inh,-2,·,2,-1,·,·,-1,-1
Ecoli growth,0.71,·,0.68,0.68,0.69,·,0.78,0.7
Vif TR-FRET,?,·,0%,·,-5%,·,7%,-2%
MLL AF4-AF9 inh,7.6,6.4,-4.0,1.2,0.5,-2.7,·,2.7
Ecoli rRNA inh,10,-15,-6,4,3,1,·,-4
Ecoli rRNA inh OD600,14,-20,-7,6,-1,13,·,-6
Ecoli rRNA inh RFP,3.3,-3.8,-2.7,-8.0,0.0,-1.4,·,-0.2
FGF22 binding,i,i,i,i,i,i,·,i

#9 Cc1ccc(NC(=O)C2CCCN(S(=O)(=O)c3c(C)noc3C)C2)c(C)c1 (centres undefined)
#10 Nc1cc(S(=O)(=O)Nc2ccc(Br)cc2)ccc1Cl
#11 Cc1ccc(S(=O)(=O)Oc2ccccc2/C=N/Nc2ccc(C(=O)O)cc2)cc1
#12 CSc1ccc(C(=O)C2CCCN(Cc3ccc(N4CCNC4=O)cc3)C2)cc1 (centres undefined)
#13 COc1ccc(C(=O)N2CCSC2=S)cc1OC
#14 CCC(C)c1ccccc1NC(=O)c1cc(C)no1 (centres undefined)
#15 Cc1sc2ncnc(N3CCC(C(=O)Nc4ccc(OC(F)F)c(Cl)c4)CC3)c2c1C
#16 O=C(CCNS(=O)(=O)c1ccccc1)NNC(=O)c1cccc(Cl)c1
screen / no.,9,10,11,12,13,14,15,16
HNF4A DNA FP,-0.2,-1.3,-1.5,-0.6,1.1,-1.4,3.5,-1.6
ALR H2O2 inh,-4,-7,56,-4,?,-12,-9,·
Ecoli growth,0.75,0.63,·,0.73,0.7,0.71,0.69,0.72
Vif TR-FRET,-5%,-1%,12%,19%,4%,·,·,·
MLL AF4-AF9 inh,·,-3.0,3.1,13,·,-3.3,-1.2,-1.6
Ecoli rRNA inh,·,-56,-33*,·,·,3,1,2
Ecoli rRNA inh OD600,·,-80,-22*,·,·,-1,-24,7
Ecoli rRNA inh RFP,·,-28,-7.2*,·,·,-3.2,5.6,-1.8
FGF22 binding,·,i,i,i,·,i,i,i

#17 CCCC(c1nnnn1Cc1ccc(OC)cc1)N1CCN(c2ccccc2)CC1 (centres undefined)
#18 Cc1cc(C(=O)Nc2cccc3c2O[C@@H](CN(C)Cc2ccc4c(c2)OCO4)[C@H](C)CN([C@H](C)CO)C3=O)n(C)n1
#19 COC(=O)c1ccc(OCC(=O)N2CCCc3ccccc32)cc1
#20 CCCC#Cc1ccc([C@H]2[C@H]3CN(Cc4ccncc4)CCCCN3[C@H]2CO)cc1
#21 Cc1ccc(C(=O)N[C@H](C(=O)N2CCN(c3ncccn3)CC2)C(C)C)cc1
#22 CCOC(=O)c1ccc(NC(=S)NNC(=O)C2(C)CC2(Cl)Cl)cc1 (centres undefined)
#23 CCC(=O)Nc1ccc2c(c1)C(=O)N(C)[C@H]1CC[C@@H](CC(=O)N3CCc4ccccc4C3)O[C@@H]1CO2
#24 C[C@@H]1CN([C@H](C)CO)C(=O)Cc2cc(NS(=O)(=O)c3cccs3)ccc2O[C@H]1CN(C)Cc1ccc(Cl)c(Cl)c1
screen / no.,17,18,19,20,21,22,23,24
HNF4A DNA FP,-4.3,·,0.8,·,-0.8,-1.5,·,·
ALR H2O2 inh,·,·,·,·,·,72,·,·
Ecoli growth,0.75,·,0.67,·,·,0.73,·,·
Vif TR-FRET,-6%&11%,·,·,·,·,14%,·,·
MLL AF4-AF9 inh,·,4.9,0.1,5.6,1.2,·,-1.7,0.6
Ecoli rRNA inh,·,-1,-4,1,2,·,4,-4
Ecoli rRNA inh OD600,·,-9,-16,-6,2,·,6,-8
Ecoli rRNA inh RFP,·,-1.7,0.2,14,-2.3,·,-0.1,2.3
FGF22 binding,·,i,i,i,i,·,i,i

#25 COc1cccc(CNc2ccc3c(c2)ncn3C)c1OC
#26 Cc1cc(C)nc(NS(=O)(=O)c2ccc(NC(=O)CCN3C(=O)c4ccccc4C3=O)cc2)n1
#27 COc1ccc(S(=O)(=O)N[C@@H]2CC[C@H](CCn3cc(-c4ccccc4F)nn3)O[C@@H]2CO)cc1
#28 C[C@@H]1CN([C@H](C)CO)C(=O)c2cccc(NC(=O)c3nc4ccccc4s3)c2O[C@H]1CN(C)C(=O)Nc1ccccc1
#29 C[C@H]1CN([C@@H](C)CO)C(=O)c2cc(NC(=O)Nc3ccc(C(F)(F)F)cc3)ccc2O[C@@H]1CN(C)S(=O)(=O)c1ccccc1
#30 COc1nn(CC(=O)N2N=C(C)CC2(O)C(F)F)cc1[N+](=O)[O-] (centres undefined)
#31 COc1ccc(C2CC(c3cccs3)=NN2C(=O)CSc2nc3ccccc3o2)cc1 (centres undefined)
#32 N=c1n(Cc2ccccc2)c2ccccc2n1Cc1ccccc1
screen / no.,25,26,27,28,29,30,31,32
HNF4A DNA FP,1.9,1.6,·,·,·,0.2,4.5,0.1
ALR H2O2 inh,?,-8,·,·,·,-3,·,-12
Ecoli growth,0.67,0.65,·,·,·,0.68,0.71,0.66
Vif TR-FRET,·,14%,·,·,·,10%,-9%,?
MLL AF4-AF9 inh,5.0,·,0.1,1.5,-2.9,·,·,·
Ecoli rRNA inh,11,·,-9,-4,-2,·,·,·
Ecoli rRNA inh OD600,9,·,-14,0,-3,·,·,·
Ecoli rRNA inh RFP,0.5,·,3.6,-2.5,-1.2,·,·,·
FGF22 binding,i,·,i,i,i,·,·,·

#33 Cc1ccc(Nc2n[nH]c(=S)s2)cc1
#34 O=C(Nc1ccccc1)c1ccc(CSc2ncccn2)cc1
#35 Cc1nc(-c2ccccn2)sc1C(=O)Nc1ccc(F)cc1F
#36 CCCNC(=O)Nc1ccc2c(c1)OC[C@@H](C)N(CCC(F)(F)F)C[C@@H](C)[C@@H](OC)CN(C)C2=O
#37 Cc1ccccc1-c1ccc([C@H]2[C@H]3CN(CC4CCOCC4)CCCCN3[C@H]2CO)cc1
#38 COC(=O)c1cn(C(=O)c2ccc(C)cc2C)c2ccccc12
#39 CNS(=O)(=O)c1cccc(C(=O)NCC(c2cccs2)N(C)C)c1 (centres undefined)
#40 CCCCNC(=O)CCn1nc(-c2ccc(Cl)cc2)c2ccccc2c1=O
screen / no.,33,34,35,36,37,38,39,40
HNF4A DNA FP,-2.8,-3.0,2.7,·,·,0.7,0.6,1.5
ALR H2O2 inh,·,0,6,·,·,-16,-1,-4
Ecoli growth,·,0.69,0.71,·,·,0.69,0.68,0.64
Vif TR-FRET,·,-1%,26%,·,·,11%,31%,·
MLL AF4-AF9 inh,-2.1,·,·,-1.4,11,0.0,·,-9.2
Ecoli rRNA inh,-16,·,·,0,-2,1,·,-9
Ecoli rRNA inh OD600,-2,·,·,-2,-3,-2,·,3
Ecoli rRNA inh RFP,-3.0,·,·,-1.9,1.8,-3.8,·,1.3
FGF22 binding,i,·,·,i,i,i,·,i

Whole records, looked up by structure. Screens in order: HNF4A DNA FP	ALR H2O2 inh	Ecoli growth	Vif TR-FRET	MLL AF4-AF9 inh	Ecoli rRNA inh	Ecoli rRNA inh OD600	Ecoli rRNA inh RFP	FGF22 binding
CCCNC(=O)Nc1ccc2c(c1)OC[C@@H](C)N(CCC(F)(F)F)C[C@@H](C)[C@@H](OC)CN(C)C2=O reads ·	·	·	·	-1.4	0	-2	-1.9	i
CCCCNC(=O)CCn1nc(-c2ccc(Cl)cc2)c2ccccc2c1=O reads 1.5	-4	0.64	·	-9.2	-9	3	1.3	i

Going on with the list.
#41 C[C@@H]1CN([C@@H](C)CO)C(=O)c2cccc(NC(=O)Nc3ccccc3)c2O[C@H]1CN(C)S(C)(=O)=O
#42 Cc1cc(C)cc(NS(=O)(=O)c2cc3[nH]c(=O)c(=O)[nH]c3cc2C)c1
#43 CCC(C)NC(=O)c1ccccc1NC(=O)C1COc2ccccc2O1 (centres undefined)
#44 CCc1ccc(OC2(C)CCN(Cc3ccccc3OC(F)F)C2)cc1 (centres undefined)
#45 Cc1ccc(S(=O)(=O)N(C)C[C@@H]2Oc3ccc(NC(=O)C4CC4)cc3C(=O)N([C@H](C)CO)C[C@@H]2C)cc1
#46 Cc1noc(C)c1CSCC(=O)OCC(=O)Nc1ccc(OC(F)(F)F)cc1
#47 Cc1cc(OCC(=O)NC(C)C)cc(C)c1Cl
#48 CCOC(=O)c1cnc(SC)nc1Oc1cccc(NC(=O)c2cccc(Cl)c2Cl)c1
screen / no.,41,42,43,44,45,46,47,48
HNF4A DNA FP,·,-1.3,-0.1,-8.8,·,1.7,2.2,-0.3
ALR H2O2 inh,·,-7,-1,·,·,·,5,-8
Ecoli growth,·,0.78,0.66,·,·,·,0.7,0.78
Vif TR-FRET,·,·,·,·,·,·,·,-3%
MLL AF4-AF9 inh,-2.6,0.2,-0.5,3.2,-1.6,-6.3,·,·
Ecoli rRNA inh,-5,7,1,-8,-4,-9,·,·
Ecoli rRNA inh OD600,-3,1,7,-40,-6,-5,·,·
Ecoli rRNA inh RFP,-0.2,1.7,-0.1,-13,-2.1,-3.9,·,·
FGF22 binding,i,+,i,i,i,i,·,·

Some entries already given, reduced to Ecoli growth and Ecoli rRNA inh.
# | SMILES | Ecoli growth | Ecoli rRNA inh
44 | CCc1ccc(OC2(C)CCN(Cc3ccccc3OC(F)F)C2)cc1 (centres undefined) | · | -8
48 | CCOC(=O)c1cnc(SC)nc1Oc1cccc(NC(=O)c2cccc(Cl)c2Cl)c1 | 0.78 | ·

(cont.)
#49 CC(C)NC(=O)N[C@H]1CC[C@@H](CCNC(=O)C2CC2)O[C@@H]1CO
#50 Cc1cccnc1N=O
#51 Cc1cc2cc(C)c3nnc(SCC(=O)Nc4ccc(S(=O)(=O)N5CCCCC5C)cc4)n3c2cc1C (centres undefined)
#52 COc1ccccc1C(=O)Nc1ccnn1C1CCN(C(=O)C(C)(C)C)CC1
#53 Cn1c(=N)c(S(=O)(=O)c2ccccc2)cc2c(=O)n3ccccc3nc21
#54 COc1ccc(-c2cnc3c(NC=O)cc(-c4cc(OC)c(OC)c(OC)c4)cn23)cc1OC
#55 CCCCn1nc(CC(=O)NCCN(CC)CC)c2ccccc2c1=O
screen / no.,49,50,51,52,53,54,55
HNF4A DNA FP,·,·,2.8,-3.0,-0.7,1.6,-0.7
ALR H2O2 inh,·,·,-6,-6,-3,·,-1
Ecoli growth,·,·,0.69,0.69,0.77,·,0.72
Vif TR-FRET,·,·,0%,·,2%,·,·
MLL AF4-AF9 inh,1.0,-2.0,·,-0.3,·,7.4,1.3
Ecoli rRNA inh,2,10,·,-12,·,9,2
Ecoli rRNA inh OD600,5,13,·,-10,·,0,8
Ecoli rRNA inh RFP,-2.3,-4.7,·,-7.1,·,1.6,-1.7
FGF22 binding,i,·,·,i,·,i,i
